# Screening data from PubChem.
# Cruzain inh noDet: blocks cruzain activity in detergent-free assay. P25779. purified cruzain, Z-FR-AMC fluorescence, no detergent. Potency, µM, for inactives: max response, negative = inhibition, usual class: inhibitors. hit rate 2.3% among 200,000. AID 1476; active = well fitted curve in the direction sought with a large enough effect; inconclusive = small, poorly fitted or top-dose-only effect, or another doubt; inactive = no such curve, though single readings can be large; an effect the other way counts as inactive or inconclusive;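 note: plate controls were enzyme without inhibitor for no effect and buffer without enzyme for full effect; nearly all actives have a fitted effect of over 40% in size; top concentration of the series not given in the record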
# Target sequence (P25779 123-467 limits assumed): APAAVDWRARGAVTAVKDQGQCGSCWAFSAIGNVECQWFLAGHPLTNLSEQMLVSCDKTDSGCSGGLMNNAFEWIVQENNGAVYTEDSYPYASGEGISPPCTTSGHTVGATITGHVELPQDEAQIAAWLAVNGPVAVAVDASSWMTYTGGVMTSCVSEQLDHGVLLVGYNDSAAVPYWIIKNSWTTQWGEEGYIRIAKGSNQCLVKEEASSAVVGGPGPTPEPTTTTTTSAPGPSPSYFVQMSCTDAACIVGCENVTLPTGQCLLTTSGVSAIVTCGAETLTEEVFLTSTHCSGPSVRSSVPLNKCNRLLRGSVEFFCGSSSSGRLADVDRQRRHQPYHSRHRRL
#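 Purified cruzain at 1.5 nM, pre-incubated 15 min with compound at room temperature in 100 mM sodium acetate pH 5.5, 5 mM DTT, 0.00005% Triton X-100. Reaction started with 2 uM Z-FR-AMC; AMC fluorescence increase over 60 s gives rate.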
# StopGo reporter: FMDV 2A StopGo reporter, luciferase signal | human cells with a luciferase reporter of 2A StopGo recoding; control for the full effect not named in the record | Potency, µM (series often up to 57.9 µM), for the others: at the highest dose signal change, negative = less light | hit rate 1.2% among 410,000; active = well fitted falling curve with a large enough effect; inconclusive = small, poorly fitted or top-dose-only effect; inactive = no such curve, though single readings can be large or run the other way; tested in HEK293T cells; note: % is set by controls: 0 for no effect and ±100 for the full control effect; nearly all actives have a fitted effect of over 45% in size; luciferase light after 4 h
# SARS PLpro yeast: SARS-CoV PLP inhibition in yeast | Potency, µM (series often up to 32.9 µM), without a hit: at the top dose activity, positive = growth rescue | S. cerevisiae expressing SARS-CoV PLpro, growth rescue; control for the full effect not named in the record | hit rate 0.19% among 330,000; note: 0% is about no effect; nearly all actives have a fitted effect of over 55% in size; growth read by luminescence after 48 h
# Cruzain Triton: cruzain (T. cruzi) inhibition with detergent. purified cruzain, Z-FR-AMC fluorescence, 0.01% Triton. Potency, µM, inactives show max response, negative = inhibition, most hits filed as inhibitors. hit rate 0.43% among 200,000. AID 1478; active = well fitted curve in the direction sought with a large enough effect; inconclusive = small, poorly fitted or top-dose-only effect, or another doubt; inactive = no such curve, though single readings can be large; an effect the other way counts as inactive or inconclusive;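 note: plate controls were neutral wells for no effect and buffer without enzyme for full effect; nearly all actives have a fitted effect of over 40% in size; top concentration of the series not given in the record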
#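 Detergent-containing arm of a paired screen for aggregation-based inhibition: 0.01% Triton X-100 present. Cruzain at 1.5 nM cleaved 2 uM Z-FR-AMC at pH 5.5 with 5 mM DTT; AMC fluorescence gain over 60 s measured activity.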
# Lassa entry inh: inhibitors of Lassa virus binding or cell entry | Lassa virus pseudotype entry inhibition, cell reporter; control for the full effect not named in the record | Potency, µM (highest dose often 37.9 µM), for inactives: at the top dose activity change, negative = inhibition, hits mostly inhibitors | hit rate 1.2% among 300,000; active means well fitted inhibition curve with a large enough effect; inconclusive means small, poorly fitted or top-dose-only effect, or effect the other way; inactive means flat fitted curve, though single readings scatter; tested in HEK293 cells; note: % is set by controls: 0 for no effect and ±100 for the full control effect; nearly all actives have a fitted effect of over 50% in size; luciferase read-out
# NS1 function inh: inhibitors of influenza NS1 protein function. Potency, µM (doses to about 46.1 µM), for the others: at the top dose activity, positive = more growth. S. cerevisiae slowed by influenza A NS1, growth recovery by OD600. hit rate 0.4% among 270,000; note: actives are rising curves; nearly all actives have a fitted effect of over 50% in size
#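 Compounds were scored for reversing the slow growth caused by influenza A NS1 in S. cerevisiae, measured by optical density at 600 nm. Assay medium contained 2% galactose at pH 6.0; NS1-free yeast of the same strain were the positive control.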
# RE007 growth inh: less growth of the S. pombe RE007 Vpr strain; S. pombe RE007 Vpr strain, BacTiter-Glo ATP luminescence, 24 h; control for the full effect not named in the record; Potency, µM (series often up to 92.2 µM), for inactives: top-dose activity change, negative = less growth; hit rate 0.21% among 360,000; AID 651644; active = well fitted falling curve with a large enough effect; inconclusive = small, poorly fitted or top-dose-only effect; inactive = no such curve, though single readings can be large or run the other way;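 note: % is set by controls: 0 for no effect and ±100 for the full control effect; nearly all actives have a fitted effect of over 50% in size; the assay follows cell death caused by Vpr and the record does not say whether a fall means rescue or toxicity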
#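 Fission yeast strain RE007, carrying one chromosomally integrated HIV-1 vpr copy, was seeded at OD 0.01 in PMG+AL medium with 23 nL pinned compound. After 24 h at 30 °C and 99% humidity, viability was read by BacTiter-Glo luminescence.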
# MARV entry inh: inhibitors of Marburg virus binding or cell entry; hit rate 1.8% among 300,000; Marburg virus pseudotyped entry inhibition, cell reporter; control for the full effect not named in the record; about a third of the inactives were read at about 46 µM; Potency, µM (titrated, usually from 37.8 µM), for inactives: at the top dose activity change, negative = inhibition, hits mostly inhibitors; active = well fitted inhibition curve with a large enough effect; inconclusive = small, poorly fitted or top-dose-only effect, or effect the other way; inactive = flat fitted curve, though single readings scatter; tested in HEK293 cells; about a fifth of its hits are not listed in these tables; note: % is set by controls: 0 for no effect and ±100 for the full control effect; luciferase read-out
# Active calls of the source: *; u = inconclusive; x = not tested or not shown; & = joins results of further samples; [ ] = another dose, or the depositor's remark. Unless noted, calls come from the whole dose curve; as a rule, active means well fitted rising curve with a large enough effect; inconclusive means small, poorly fitted or top-dose-only effect; inactive means no such curve, though single readings can be large or run the other way. Potency is the fitted concentration of half-maximal effect.
1) O=S(=O)(CC(CN1CCCCC1)N1CCCCC1)c1ccc2ccccc2c1 (stereo not drawn)
2) COCCNc1cnn(-c2ccccc2)c(=O)c1Cl
3) CN1C(=O)/C(=C2\SC(=S)N(C(CCC(=O)O)C(=O)O)C2=O)c2ccccc21 (stereo not drawn)
4) Cc1ccc(NC(=O)C2CCCN(S(=O)(=O)c3ccc4[nH]c(=O)ccc4c3)C2)c(C)c1 (stereo not drawn)
5) CCN(CC)CCNc1nc(-c2ccccc2)c2c(c1C#N)CC(C)(C)OC2
6) CSc1nnc2ccc(-c3cccs3)nn12
7) COc1ccc(Cn2nnnc2C(c2cc3cccc(C)c3[nH]c2=O)N2CCN(C)CC2)cc1 (stereo not drawn)
8) O=C(CSc1nc2ccccc2c(=O)n1-c1ccccc1)N1CCN(CCO)CC1
Screen / compound no.	1	2	3	4	5	6	7	8
Cruzain inh noDet	x	x	-3%	x	-15%	x	x	-2%
StopGo reporter	u	29%	9%	-12%	-25%	20%	1%	-3%
SARS PLpro yeast	0%	7%	-3%	10%	-4%	-1%	0%	4%
Cruzain Triton	x	x	4.9%	x	1.8%	x	x	1.7%
Lassa entry inh	u	6%[46.1 µM]	5%	x	-16%	-2%	14%	12%
NS1 function inh	x	u	u	6%	4%	x	-5%	-4%
RE007 growth inh	-9%	-1%	19%	-1%	4%	16%	-4%	23%
MARV entry inh	3.5µM*	25%[46.1 µM]	11%	x	u	1%	-14%	9%

9) O=C(OCc1nnc(-c2ccccc2)o1)c1cc2ccccc2cc1O
10) CC1=NN(C(N)=S)C(=O)C1N=Nc1ccc(F)cc1 (stereo not drawn)
11) CC(C)(C)NC(=O)C1N(c2cccnc2)C(=O)C2C(C(=O)Nc3ccccc3F)C3(C)C=CC21O3 (stereo not drawn)
12) Cc1ccc(C(=O)N2CCCC(C(=O)c3cc(F)ccc3F)C2)s1 (stereo not drawn)
13) O=S(=O)(N=C(NS(=O)(=O)c1ccc(Cl)cc1)c1ccccc1)c1ccc(Cl)cc1
14) COc1cccc(OC)c1C(=O)N=c1sc2cc(S(C)(=O)=O)ccc2n1C
15) CCOC(=O)N1CC=C2C(C#N)=C(N)C(C#N)(C#N)[C@H](c3ccc(OC(C)C)c(OCC)c3)[C@H]2C1
16) COc1ccc(-c2nc(Cn3c(SCc4ccc(F)cc4)nc4ccncc43)c(C)o2)cc1OC
Screen / compound no.	9	10	11	12	13	14	15	16
Cruzain inh noDet	x	x	-2%	x	x	x	u	14%
StopGo reporter	35%[activator]	36%[activator]	4%	-12%	28%	2%	0%	-8%
SARS PLpro yeast	-1%	1%	7%	-1%	2%	-2%	2%	-3%
Cruzain Triton	x	x	-1.0%	x	x	x	-6.5%	-14%
Lassa entry inh	x	x	-2%	x	-1%	4%[46.1 µM]	-16%	x
NS1 function inh	-6%	-42%	1%	-9%	x	12%	u	10%
RE007 growth inh	0%	-9%	2%	-9%	2%	-7%	-3%	-10%
MARV entry inh	x	x	3%&3%	x	7%	10%[46.1 µM]	u	1%

17) O=C(COc1ccccc1)N1CCN(S(=O)(=O)Cc2ccccc2)CC1
18) COc1ccc(NC(=O)CSc2nc(N)c3cc4c(nc3n2)CCCC4)cc1
19) Cc1ccc(CN2C(=O)c3ccccc3C2C(=O)NCc2cccnc2)cc1 (stereo not drawn)
20) COc1ccc(C2=NOC(CN3C(=O)c4ccccc4S3(=O)=O)C2)cc1 (stereo not drawn)
21) O=C(O)COc1nsnc1N1CCOCC1
22) CC1(c2ccncc2)Nc2ccccc2-c2nc3ccccc3n21 (stereo not drawn)
23) O=C(NCCc1ccccc1Cl)C1CCC(=O)N(C2CCCCCC2)C1 (stereo not drawn)
24) O=C1CC(C(=O)NC2CCCCC2)C(c2ccccc2)O1 (stereo not drawn)
Screen / compound no.	17	18	19	20	21	22	23	24
Cruzain inh noDet	7%	-15%	2%	-2%	-12%	5%	x	-8%
StopGo reporter	x	31%[activator]	-17%	-23%	18%	34%[activator]	-12%	-6%
SARS PLpro yeast	-1%	-6%	8%	1%	-2%	-11%	-2%	-2%
Cruzain Triton	-8.7%	-6.2%	3.7%	-3.5%	1.9%	-0.7%	x	-0.8%
Lassa entry inh	15%	u	x	u	15%	20%	x	2%
NS1 function inh	-3%	u	1%	u	0%	-47%	-8%	-7%
RE007 growth inh	0%	-1%	-15%	-12%	15%	6%	2%	5%
MARV entry inh	5%	u	x	-11%	u	u	x	u

25) CCOC(=O)C1CCN(C(=O)c2c(-c3c(F)cccc3Cl)noc2C)CC1
26) Cc1c(CCO)c(=O)[nH]n1S(=O)(=O)c1ccc(F)cc1
27) CCOC(=O)C1(Cc2cccc(F)c2)CCN(C(=O)c2cnccn2)CC1
28) Cc1ccc(-c2nn(CC(=O)NCC3CCCO3)c(=O)c3ccccc23)cc1 (stereo not drawn)
29) CCC(=O)NS(=O)(=O)c1cccnc1Nc1ccc(Cl)cc1
30) Cn1c(=O)c2c(ncn2CC(=O)OCC(=O)c2ccc(F)c(F)c2)n(C)c1=O
31) O=S(=O)(NCc1ccc2c(c1)OCO2)c1cnc[nH]1
32) Cc1cccc(NC(=O)c2cc([N+](=O)[O-])ccc2N2CCCCC2)n1
Screen / compound no.	25	26	27	28	29	30	31	32
Cruzain inh noDet	12%	x	x	4%	-6%	x	-3%	x
StopGo reporter	-10%	-3%	-3%	-15%	-23%	-15%	-22%	-28%
SARS PLpro yeast	-6%	-1%	0%	-1%	2%	-4%	-2%	-1%
Cruzain Triton	5.5%	x	x	-0.1%	-0.4%	x	1.0%	x
Lassa entry inh	-7%	9%[46.1 µM]	-14%	2%	-7%	5%	x	u
NS1 function inh	u	1%	-1%	5%	0%	15%	u	x
RE007 growth inh	-12%	3%	4%	-1%	-2%	-22%	-24%	-4%
MARV entry inh	5%	-1%[46.1 µM]	0%[46.1 µM]	-13%	u	7%	x	u

# Compound profiles, from the list above. Order of values: Cruzain inh noDet | StopGo reporter | SARS PLpro yeast | Cruzain Triton | Lassa entry inh | NS1 function inh | RE007 growth inh | MARV entry inh
# `Cn1c(=O)c2c(ncn2CC(=O)OCC(=O)c2ccc(F)c(F)c2)n(C)c1=O` is entered as x | -15% | -4% | x | 5% | 15% | -22% | 7%
# `Cc1ccc(-c2nn(CC(=O)NCC3CCCO3)c(=O)c3ccccc23)cc1` (stereo not drawn) is entered as 4% | -15% | -1% | -0.1% | 2% | 5% | -1% | -13%
# `O=S(=O)(NCc1ccc2c(c1)OCO2)c1cnc[nH]1` is entered as -3% | -22% | -2% | 1.0% | x | u | -24% | x
# `Cc1cccc(NC(=O)c2cc([N+](=O)[O-])ccc2N2CCCCC2)n1` is entered as x | -28% | -1% | x | u | x | -4% | u
# `CCOC(=O)C1(Cc2cccc(F)c2)CCN(C(=O)c2cnccn2)CC1` is entered as x | -3% | 0% | x | -14% | -1% | 4% | 0%[46.1 µM]

# Other records
33) CCCn1cc(CN2CCC(Oc3ccc(C(=O)N4CCCC4)cc3)CC2)c(C)n1
34) c1ccc(OCCSc2nc3ccccc3o2)cc1
35) CCc1ccc(NC(=O)C2CCCN(S(=O)(=O)c3cccs3)C2)cc1 (stereo not drawn)
36) O=C(NCc1ccccc1)N1CCOCC1
37) Cc1cc(C(=O)NCc2cccs2)nn1C
38) CCSc1cc(N2CCOCC2)nc(-c2ccc(Cl)cc2)n1
39) CC(C)Cn1cc(NC(=O)NCc2ccc(Cl)cc2)c2ccccc2c1=O
40) COc1ccc(/C=N/N2CCN(c3ccc(Cl)cc3)CC2)cc1
Screen / compound no.	33	34	35	36	37	38	39	40
Cruzain inh noDet	x	3%	x	x	x	0%	-7%	x
StopGo reporter	-7%	x	-24%	-5%	8%	-16%	-18%	-18%
SARS PLpro yeast	-3%	-1%	0%	1%	1%	-5%	x	3%
Cruzain Triton	x	-0.3%	x	x	x	-6.2%	-8.6%	x
Lassa entry inh	x	-2%	-7%	x	2%	-1%	-4%[46.1 µM]	18%
NS1 function inh	-14%	-20%	12%	1%	2%	-3%	x	18%
RE007 growth inh	-1%	-9%	-14%	-15%	32%	3%	x	5%
MARV entry inh	x	18%	-11%[46.1 µM]	x	5%[46.1 µM]	8%	x	-27%

41) CC(C)/C(=N\NS(=O)(=O)c1ccc(Br)cc1)c1cccs1
42) Cc1cc2[nH]ncc2cc1NC(=S)NC(=O)c1ccccc1
43) COC(=O)c1ccccc1NC(=O)c1ccc(COc2ccc3c(c2)CCC3)cc1
44) COc1ccccc1NS(=O)(=O)c1cc(NC(=S)NCC2CCCO2)ccc1C (stereo not drawn)
45) COc1ccc(C(=O)Nc2ccc(S(=O)(=O)N3CCOCC3)cc2)cc1
46) CCOc1ccccc1CN1CCNC(=O)C1CC(=O)NC1CCCCC1 (stereo not drawn)
47) O=S1c2ccccc2Oc2ccccc21
48) Cc1ccc(C)c(N2CCN(c3nccn4nc(-c5ccc(Br)cc5)cc34)CC2)c1
49) COC(=O)c1nc2ccc(N3CCOCC3)cc2c(C)c1C(=O)OC
Screen / compound no.	41	42	43	44	45	46	47	48	49
Cruzain inh noDet	x	1%	u	x	x	x	x	8%	x
StopGo reporter	5%	-26%	29%	21%	4%	26%	-5%	-16%	5%
SARS PLpro yeast	-4%	3%	-1%	-1%	x	-1%	x	x	-4%
Cruzain Triton	x	-1.1%	1.6%	x	x	x	x	-2.4%	x
Lassa entry inh	-1%	-16%	24%	-20%	14%	u	16%[46.1 µM]	4%[46.1 µM]	-2%
NS1 function inh	-31%	0%	1%	x	x	12%	x	x	x
RE007 growth inh	-14%	31%	21%	-3%	2%	0%	-1%	x	-7%
MARV entry inh	-8%[46.1 µM]	u	-9%	11%[46.1 µM]	10%	-15%[46.1 µM]	7%[46.1 µM]	19%[46.1 µM]	u
